Screens as filed in PubChem.
H5N1 CPE = MDCK cell protection from H5N1 avian flu; cytopathic effect, luminescence, 72 h; active compounds read high; no value below 0 was filed and about half of the inactive calls have no number; reference of the scale not given here; inhibition, % at 50 µM; 96,000 compounds, 0.07% hits; AID 740; in the data active means inhibition above about 25%
The depositor's hits bear a star; i = inactive.

SMILES | H5N1 CPE
CCn1c(/C=C/c2ccccc2)nc2ccccc21 | i
COc1cccc(C(=O)Nc2ccccc2N2CCCC2)c1 | 0.3
COc1ncnc2c1NC(=O)CS2 | i
COc1cc(C2C(C#N)=C(C)NC3=C2C(=O)CC(C)(C)C3)ccc1OCCO (stereo unspecified) | i
CCOC(=O)C1CCN(c2nc3ccccc3nc2C(C#N)C(=O)OC(C)C)CC1 (stereo unspecified) | i
CC(=O)Nc1sc2c(c1CN1CCN(c3ccc(F)cc3)CC1)CCCC2 | i
O=C(NCc1cccs1)C1CCC(=O)N1C1CCCCC1 (stereo unspecified) | 0.2
Cc1nnc(NC(=O)CC(CN(C)S(=O)(=O)c2ccccc2)c2ccccc2)s1 (stereo unspecified) | 3.3
Cc1cc(CN(C)C)c(O)c(C2(C)CCCCC2)c1 | 0.0
COc1ccc(CC2CCOC2=O)cc1 (stereo unspecified) | i
O=C(/C=C/c1cccc(Cl)c1)c1nc2ccccc2[nH]1 | i
COc1cccc(OC)c1C(=O)Nn1c(C2CCC2)nc2ccccc2c1=O | i
Cc1ccc(NC(=O)CSC2=C(C#N)C(c3ccco3)CC(=O)N2)cc1 (stereo unspecified) | 2.2
Cc1cccc(N2C(=O)C3C4C=CC(C4)C3C2=O)c1 (stereo unspecified) | 0.5
CCCCCCSC1=C(C#N)C(c2ccccc2)CC(=O)N1 (stereo unspecified) | 0.6
COc1ccc(N2CCN(C(=O)CSc3nnc(-c4cccnc4)n3-c3ccccc3)CC2)cc1 | i
Cc1sc2ncnc(NCC(c3ccco3)N(C)C)c2c1C (stereo unspecified) | i
CN(C(=O)COC(=O)c1c[nH]c(=O)[nH]c1=O)C1CCCCC1 | i
O=c1oc2ccccc2c2c1ncn2CCN1CCOCC1 | 1.1
N/C(=N\OC(=O)CCCCCN1C(=O)c2ccccc2C1=O)c1ccccc1 | i
CS(=O)(=O)N(CC(=O)Nc1cccc(Cl)c1)c1ccccc1Cl | 1.7
CCC(Sc1nncn1C)C(=O)Nc1nnc(-c2ccccc2Cl)s1 (stereo unspecified) | 1.4
C=CCOc1c(OC)cc(Cl)cc1C1NC(=O)NC(C)=C1C(C)=O (stereo unspecified) | i
Cc1sc(NC(=O)c2sc3nc4c(C)cccc4cc3c2N)c(C#N)c1C | i
CC(NC(=O)c1cnc2n(c1=O)CCS2)c1ccccc1 (stereo unspecified) | 1.2

Filtered by structure: those above containing a halogen.
SMILES | H5N1 CPE
CC(=O)Nc1sc2c(c1CN1CCN(c3ccc(F)cc3)CC1)CCCC2 | i
O=C(/C=C/c1cccc(Cl)c1)c1nc2ccccc2[nH]1 | i
CS(=O)(=O)N(CC(=O)Nc1cccc(Cl)c1)c1ccccc1Cl | 1.7
CCC(Sc1nncn1C)C(=O)Nc1nnc(-c2ccccc2Cl)s1 (stereo unspecified) | 1.4
C=CCOc1c(OC)cc(Cl)cc1C1NC(=O)NC(C)=C1C(C)=O (stereo unspecified) | i

In a second layout: 2 of the compounds above.
> Cc1sc(NC(=O)c2sc3nc4c(C)cccc4cc3c2N)c(C#N)c1C
  H5N1 CPE = i
> CC(NC(=O)c1cnc2n(c1=O)CCS2)c1ccccc1 (stereo unspecified)
  H5N1 CPE = 1.2

Remaining list, next part.
SMILES | H5N1 CPE
COc1ccccc1N=C1SC(C)CN1C(=O)C1CCC1 (stereo unspecified) | i
O=C(Nc1ccc(F)cc1F)c1cc(-c2ccco2)on1 | 1.0
COc1cc(CNc2ccccc2SC)ccc1O | 1.6
O=C(c1c(F)cccc1F)N1CCC(O)(c2cccnc2)CC1 | i
Cc1ncc([N+](=O)[O-])n1CCOC(=O)Nc1ccc(Cl)c(Cl)c1 | 0.9
CN=C(Nc1cc(C)nn1-c1ccccc1)c1ccccc1F | 0.3
Cc1ccc(N2C(=O)c3ccccc3C2=O)cc1Cl | i
CC(=NCCCn1ccnc1)c1c(O)n(C)c(=O)n(C)c1=O | 1.4
CN1CCc2c(sc3ncn4nc(-c5ccccc5O)nc4c23)C1 | 1.7
Cc1noc(C)c1COC(=O)c1cc(=O)[nH]c2ccccc12 | 0.2
Cc1cc(O)c(/C=N/Nc2ccccc2Cl)c(=O)o1 | i
COc1cc(-c2c(C#N)c(N)nc3c2CCCC3)ccc1O | i
Cc1cc(C)c(-n2c(O)c(C=NCCN3CCOCC3)c(=O)[nH]c2=O)c(C)c1 | i
CCc1nc(SCC(=O)Nc2ccc3c(c2)OCCO3)c2oc3ccccc3c2n1 | i
O=C(CN(c1ccc(F)cc1)S(=O)(=O)c1ccc2c(c1)OCCO2)NCC1CCCO1 (stereo unspecified) | i
Cc1cc(NC(=O)CSc2nc3ccc(Cl)cc3[nH]2)no1 | i
Cn1cccc1Cc1nnc(SCC(=O)Nc2ccc3c(c2)OCO3)n1CCc1ccccc1 | 0.1
CC(C)c1c(O)nc(SCCN(C)C)[nH]c1=O | 2.2
COC(=O)c1cccc(NC(=O)CSc2ncn[nH]2)c1 | 0.7
COc1ccc(CCNS(=O)(=O)c2cccc(S(=O)(=O)N3CCCC3)c2)cc1OC | 0.5
Cc1ccc2[nH]c(=O)c(CN(Cc3ccccc3)Cc3nnnn3C3CCCC3)cc2c1 | i
CC1CN(S(=O)(=O)c2cccc(C(=O)OCC(=O)c3cccs3)c2)CC(C)O1 (stereo unspecified) | 0.4
NS(=O)(=O)c1ccc(NC(=O)c2ccccc2C(=O)N2CCCCC2)cc1 | 0.2
C=C(Cl)COc1ccc2c(CC)cc(=O)oc2c1 | i
COC(=O)c1cccc(NCN2C(=O)c3ccccc3C2=O)c1 | i
COC(=O)c1ccccc1NC(=O)Nc1nnc(N2CCC(C)CC2)s1 | 2.3
O=C(Nc1nc(-c2ccccc2)cs1)C1c2ccccc2Oc2ccccc21 | i
O=C(CCCC(=O)N(CC(=O)NC1CCCCC1)Cc1ccccc1)Nc1ccccn1 | 0.4
CCn1c(SCc2cccc(C)c2)nnc1-c1ccc(C)cc1 | 3.6
COC(=O)Nc1ccc(S(=O)(=O)N(CCO)CCO)cc1 | 0.2
COc1ccccc1NC(=O)C/C(N)=N/O | i
COc1ccc(C2CC(=O)c3cnc(N4CCN(Cc5ccccc5)CC4)nc3C2)cc1 (stereo unspecified) | 2.4
Cc1ccc(-c2nnc(N3CCCCC3)c3ccccc23)cc1S(=O)(=O)N1CCN(C)CC1 | i
Cc1ccc(C(=O)N2CCN(c3ccc([N+](=O)[O-])c(NCc4ccco4)c3)CC2)cc1 | i
O=C(Cn1c(NCCCO)nc2ccccc21)c1ccc(Br)cc1 | i
CCCCSc1nnc(-c2ccc(C)cc2)n1C | i
COc1cccc(C(=O)NC(C)C(c2cccs2)N2CCN(C)CC2)c1 (stereo unspecified) | 8.4
COCC(=O)NC1CC2CCCC(C1)N2Cc1ccccc1 (stereo unspecified) | 0.4
CCN(CC)c1ccc(NC(=O)C2CCCN(S(=O)(=O)c3cnc[nH]3)C2)c(C)c1 (stereo unspecified) | 1.7
CC(=O)SCC(=O)N=c1sc2cc(F)ccc2n1C | 1.0
CCc1cc2c(NCCO)ncnc2s1 | i
Cc1ccc(C)c(Cn2nnc3c(=O)[nH]c(C4CCCN(C(=O)C5CCC5)C4)nc32)c1 (stereo unspecified) | 1.7
CC(=O)Oc1ccc(C(=O)Nc2cc(C)ccc2NC(=O)COc2ccccc2)cc1 | i
Cc1ccc(Cc2c(C)nc3nc(SCC(=O)NCc4ccco4)nn3c2C)cc1 | 0.3
OCc1nc2ccccc2n1CCCOc1ccc(Br)cc1 | 0.2
CN(CCC#N)C(=O)CSc1ncnc2sc(-c3ccccc3)cc12 | i
Cc1c(Cl)c(C(=O)Nc2nc3ccccc3n2CCN2CCCCC2)nn1C | 1.1
COc1cccc(NC(=O)CSc2nnc(Cc3cccn3C)n2-c2ccc(F)cc2)c1 | i
COc1cccc2cc(C(=O)n3ccc(C)n3)c(=O)oc12 | i
CC(C)CC(=O)NN1CCCCC1 | 0.5

(next part)
SMILES | H5N1 CPE
O=C(O)C1CCCN1S(=O)(=O)c1ccc(Cl)c(Cl)c1 (stereo unspecified) | 0.7
N#CC1=C(c2ccccc2)/C(=C/c2ccccc2)OC1=O | i
O=[N+]([O-])c1ccc(NCCNS(=O)(=O)c2ccccc2)c(C(F)(F)F)c1 | i
Cc1ccc(OCc2nc(-c3ccc(-n4cccc4)cc3)no2)cc1C | i
CCc1ccc(-c2nc(-c3ccncc3)no2)cc1 | i
Cc1cc(NC(=O)CCNS(=O)(=O)c2cc(Br)cnc2N)ccc1Br | 0.0
CCCn1c(=O)c2ccccc2n2c(SCCOc3ccc(Cl)cc3)nnc12 | 0.9
CO/N=C(\C)c1ncc(C(F)(F)F)cc1N1CCOCC1 | 0.9
COc1ccc(NC(=O)C2CCN(C(=O)c3ccccc3)CC2)c(OC)c1 | 0.2
COc1ccc(-c2cc(C(=O)NCc3cccnc3)no2)cc1 | 0.1
O=C(O)c1cnc(-c2ccccc2)nc1Sc1ccc(Cl)cc1 | 1.3
COc1ccc(CC(=O)N2CCN(C)CC2)cc1 | 0.2
Cc1nc(SCC(=O)NCCc2ccccc2)c2oc3ccccc3c2n1 | 1.3
COc1ccc(CCNCc2ccccn2)cc1OC | i
Nc1nc(-c2ccco2)nn1C(=O)c1ccc(Cl)cc1 | 0.1
Cc1cc(C)cc(CC(Cc2nc3ccccc3[nH]2)c2nc3ccccc3[nH]2)c1 (stereo unspecified) | 3.1
CC1CCCC(C)N1C(=O)CSc1nc2ncnc(N)c2[nH]1 (stereo unspecified) | i
Cc1cccc(S(=O)(=O)N(CC(=O)Nc2ccccc2C)Cc2ccco2)c1 | i
Cc1ccc[n+](CC(=O)Nc2ccc([N+](=O)[O-])cc2Cl)c1 | i
FC(F)(F)c1ccccc1NC(=S)N1CCN(c2ncccn2)CC1 | i
CCOc1cc(C2C(C#N)=C(N)SC(N)=C2C#N)ccc1OCCN1CCOCC1 | 1.1
Cc1cccn2c(=O)c3c(nc12)N1CCc2ccccc2C1C1(C3)C(=O)NC(=O)N(C)C1=O (stereo unspecified) | 2.9
O=C(O)c1cccc(-n2cccc2/C=N/O)c1 | 0.6
CCOc1ccc(OCC)c(S(=O)(=O)NCc2ccc3c(c2)OCO3)c1 | 1.0
CN(C)S(=O)(=O)c1ccc(C(=O)Nc2ccc(S(=O)(=O)NC3=NCCCCC3)cc2)cc1 | 1.2

The closing 2 compounds of the part before lead into the next.
SMILES | H5N1 CPE
CCOc1ccc(OCC)c(S(=O)(=O)NCc2ccc3c(c2)OCO3)c1 | 1.0
CN(C)S(=O)(=O)c1ccc(C(=O)Nc2ccc(S(=O)(=O)NC3=NCCCCC3)cc2)cc1 | 1.2
CC(C)CSc1nc2c(c(=O)[nH]c(=O)n2C)n1CCc1ccccc1 | i
C(=NC12CN3CN(CN(C3)C1)C2)c1ccc2c(c1)OCO2 | i
COC(=O)Cc1[nH]n(-c2nc3ccccc3s2)c(=O)c1C(C)=O | i
CCC(=O)c1ccc(OCC(O)CN(CCc2ccccc2)Cc2ccccc2)cc1 (stereo unspecified) | 1.2
CCOc1cc(/C=N/n2cnnc2)ccc1OC(=O)c1cccc([N+](=O)[O-])c1 | 1.3
O=C(NCc1n[nH]c(=S)n1-c1ccc(F)cc1)c1ccc(S(=O)(=O)N2CCCC2)cc1 | 0.2
CCc1ccc(OCC(=O)Nc2ncc3c(n2)CC(C)(C)CC3=O)cc1 | 1.0
Cn1nc(C(F)(F)F)cc1C(=O)NC1CCCCCC1 | i
Cc1nn(Cc2ccccc2)c2c1C(c1cccc(Cl)c1)C(C#N)=C(N)O2 (stereo unspecified) | i
CS(=O)(=O)N(CC(=O)NCc1ccccn1)Cc1ccc(Cl)cc1 | i
O=C(COc1ccc(Br)cc1)c1ccc2c(c1)CCCC2 | 0.6
CN1CCc2nc3sc(C(=O)C45CC6CC(CC(C6)C4)C5)c(N)c3cc2C1 | i
Cc1cccc(NC(=O)c2cc(N3CCOCC3)nc3ccccc23)c1 | 0.2
CC1=CC(C)(C)N(C)C(=O)N1c1ccc(Cl)cc1 | 1.4
Cc1cc([N+](=O)[O-])cnc1NC(C)c1ccccc1 (stereo unspecified) | i
Cc1cc(Cl)ccc1OCC(=O)OC(C)C(=O)N(C)C (stereo unspecified) | i
COC(=O)c1[nH]c2cc(OC)c(OC)cc2c1NC(=O)Oc1ccccc1 | i
CC1CN(C(NC(=O)C(C)(C)C)C(Cl)(Cl)Cl)CC(C)O1 (stereo unspecified) | 0.1
COc1ccc(S(=O)(=O)N2CCCC(C(=O)NCc3ccccn3)C2)cc1 (stereo unspecified) | 0.1
O=C(Nc1cccc(C(F)(F)F)c1)c1cc(-c2ccc(F)cc2)on1 | 0.1
COc1ccc(OCC(O)Cn2c(=N)n(Cc3ccccc3)c3ccccc32)cc1 (stereo unspecified) | i
O=C(CSc1nc2ccccc2s1)NCCOc1ccc(Cl)cc1 | 0.7
COC(=O)c1c(NC(=O)CN2CCCC(C)C2)c2c(C)cccc2n1C (stereo unspecified) | 0.0
CCN(Cc1ccccc1)C(c1cccs1)c1nnnn1C1CCCCC1 (stereo unspecified) | 3.6
CC(=O)C1=C(C)N(Cc2ccco2)C(=O)C1(NC(=O)C1CCCCC1)C(F)(F)F (stereo unspecified) | i
CCOc1cc2[nH]c(=O)n(CCCC(=O)NCc3ccc(OC)cc3)c(=O)c2cc1OCC | i
O=C(CN(C(=O)CNS(=O)(=O)c1ccccc1)c1ccc2c(c1)OCCO2)NCc1ccco1 | 5.3
COc1cccc(NC(=O)C(OC(=O)/C=C/c2ccc3c(c2)OCO3)c2ccccc2)c1 (stereo unspecified) | i
COc1cccc(-c2cc3c(-n4cccc4)ncnc3o2)c1 | 2.9
COc1ccc(-n2c(O)c(C(C)=NCCCn3ccnc3)c(=O)[nH]c2=O)cc1 | 0.2
COc1ccc(-c2cc(C(=O)Nc3ccccc3SC)no2)cc1 | i
Cc1cccc(Cn2c(C(=O)OC(C)C)cc3c2ccn3C)c1 | i
CSc1ncccc1C(=O)OCC(=O)NC(=O)NCCC(C)C | 0.2
CCCN(CCC)C(=O)COc1cc(=O)n(CC)c2ccccc12 | 1.5

The list is partial; count on the stated rates, not on these rows.
